Bioassay records: PubChem BioAssay, several laboratories
Ecoli growth = E. coli growth inhibition; Escherichia coli growth, OD600, 23 h; stronger effect = lower value; OD600 absorbance (concentration not given with the values); 330,000 tested, 0.21% active; AID 1053175;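 active means OD600 absorbance below the run mean of sample wells minus 3.6 SD, in any replicate, cut at about 0.56 in these data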;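 further: stock transfer was 300 nL into about 60 µL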
ALR H2O2 inh = human ALR oxidase inhibition via reduced H2O2; inhibition, % (test concentration not listed); 290,000 tested, 3.8% active; P55789; purified ALR, DTT oxidation, H2O2 HRP-luminol luminescence;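 active means mean and each replicate at 75% or more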;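 further: stock transfer was 7.5 nL into about 7.5 µL; 0% = neutral wells and 100% = wells with inactivated enzyme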
Target sequence (P55789 whole entry, looked up): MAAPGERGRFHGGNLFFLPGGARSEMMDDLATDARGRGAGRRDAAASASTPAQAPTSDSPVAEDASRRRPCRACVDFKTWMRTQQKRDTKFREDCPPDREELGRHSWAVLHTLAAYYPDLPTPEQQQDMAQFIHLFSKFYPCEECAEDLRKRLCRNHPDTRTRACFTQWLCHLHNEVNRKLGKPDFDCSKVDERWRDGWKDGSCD
Vif A3G = HIV-1 Vif–A3G interaction blockers – biochemical, TR-FRET, GST-Vif 1-94, biotin-A3G peptide, dose response retest, primary screen (AID 1117319) | inhibition, %; hits with a dose series show IC50 in µM | 260,000 tested, 0.57% active | TR-FRET GST-Vif / biotin-A3G peptide binding; higher % means a stronger effect; test concentration not given here; strong numbers were not always called active;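 active means above the screen mean plus three standard deviations and confirmed in dose response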;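 further: Vif residues 1-94 fused to GST binding biotinylated APOBEC3G peptide 110-148; 0% = full assay without inhibitor and 100% = GST in place of GST-Vif; retest series ran down from 100 µM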
HNF4A DNA FP = change in binding of human HNF4 alpha to DNA; HNF4a-FITC DNA binding, fluorescence polarization, 1 h; activity change, % at 10 µM; AID 1224865; 360,000 tested, 0.3% active; P41235; in the data active means activity change above about 30%, passing the limit was not always enough;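 further: controls were the assay level and a saturating level of protein; the project sought stronger binding though the title names inhibitors; some compounds called inactive have numbers as strong as hits; positive values seem to mean higher polarization but the record does not say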
The depositor's hits bear a star. This is a subset. The share of hits here may be higher or lower than overall.

COc1ccc(CC2COC(=O)C2Cc2ccc(OC3OC(CO)C(O)C(O)C3O)c(OC)c2)cc1OC (stereo unspecified) was read as Ecoli growth 0.67.
Screening CC(=O)OCC1=CC2OC(=O)C3=COC(OC4OC(CO)C(O)C(O)C4O)C1C32 (stereo unspecified) returned Ecoli growth 0.71.
Screening COc1cc(-c2oc3cc(O)cc(O)c3c(=O)c2OC2OC(COC3OC(C)C(O)C(O)C3O)C(O)C(O)C2O)ccc1O (stereo unspecified) returned Ecoli growth 0.64.
O=c1cc(-c2ccc(O)cc2)oc2cc(OC3OC(CO)C(O)C(O)C3OC3OC[C@](O)(CO)C3O)cc(O)c12 (stereo partly specified) was read as Ecoli growth 0.69.
For CN(C)CCC=C1c2ccccc2COc2ccc(CC(=O)O)cc21 the results were Ecoli growth 0.69.
COc1cc2ncnc(Nc3cccc(Cl)c3)c2cc1OC was read as Vif A3G -4%.
Screening CCn1cc(C(=O)O)c(=O)c2cnc(N3CCNCC3)nc21 returned ALR H2O2 inh -9 and Vif A3G 3%.
NC(N)=O was read as ALR H2O2 inh 1 and HNF4A DNA FP 0.3.
Screening COc1cc([C@@H]2Oc3cc(C4Oc5cc(O)cc(O)c5C(=O)[C@H]4O)ccc3O[C@H]2CO)ccc1O (stereo partly specified) returned ALR H2O2 inh 99* and HNF4A DNA FP 2.6.

Gathered by group: those above containing nitrogen in an aromatic ring.
COc1cc2ncnc(Nc3cccc(Cl)c3)c2cc1OC was read as Vif A3G -4%.
Screening CCn1cc(C(=O)O)c(=O)c2cnc(N3CCNCC3)nc21 returned ALR H2O2 inh -9 and Vif A3G 3%.

Arranged by molecular weight (largest number first): some entries from above
Screening COc1cc(-c2oc3cc(O)cc(O)c3c(=O)c2OC2OC(COC3OC(C)C(O)C(O)C3O)C(O)C(O)C2O)ccc1O (stereo unspecified) returned Ecoli growth 0.64.
Screening CC(=O)OCC1=CC2OC(=O)C3=COC(OC4OC(CO)C(O)C(O)C4O)C1C32 (stereo unspecified) returned Ecoli growth 0.71.
Screening CCn1cc(C(=O)O)c(=O)c2cnc(N3CCNCC3)nc21 returned ALR H2O2 inh -9 and Vif A3G 3%.
NC(N)=O was read as ALR H2O2 inh 1 and HNF4A DNA FP 0.3.
